# ugtP null kill – kills S. aureus RN4220 lacking UgtP; growth inhibition, % (concentration not given with the values); S. aureus RN4220 ugtP deletion, OD600 growth, 16 h; some inactives read as strong as hits; AID 1259309; 330,000 compounds, 0.54% hits;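 active = z-score under -3 and OD600 up to 0.15 on both plates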;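 note: plate controls were untreated wells for no effect and antibiotic for full effect; wells of about 80 µL received 100 nL stock; the first replicate is given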
# Sa RN4220 lethal – kills Staphylococcus aureus RN4220; S. aureus RN4220 growth, OD600, 16 h; inhibition, % (no concentration beside the values); 330,000 compounds, 0.33% hits; AID 1259311;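 active = z-score of -3 or lower and OD600 up to 0.18 on both plates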;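 note: plate controls were untreated cells for no effect and reference antibiotic for full effect; stock transfer was 100 nL into about 80 µL; one replicate is shown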
# BJeLR lethal – BJeLR cell viability loss; 300,000 compounds, 0.17% hits; inhibition, % (test concentration not listed); BJeLR (HRASV12) viability, CellTiter-Glo ATP luminescence, 48 h; reference of the scale not given here;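 active = replicate mean above 50%; inconclusive = above 50% but judged a plate artefact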;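 note: 50 nL library stock added to about 25 µL; numbers are from one replicate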
# PrP UTR inh – inhibition of PrP 5' UTR reporter expression; cell-based PrP 5' UTR mRNA reporter, plate reader; inhibition, % (test concentration not listed); 340,000 compounds, 0.35% hits;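 active = every replicate at 50% or more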;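 note: 0 = median of the neutral control wells; tested in H4 reporter cells; numbers are from one replicate; inactives centre near -14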
# Mtb hypoxia rep – inhibitors of hypoxia-regulated fluorescent reporter in Mycobacterium tuberculosis; M. tuberculosis hypoxia-regulated fluorescent reporter, fluorescence; 300,000 compounds, 0.1% hits; fluorescence inhibition, % (concentration not given with the values);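 active = 35 to 45% if threefold the growth effect, above 45% if 1.5-fold the growth effect; inactive = the rest, general growth blockers included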;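 note: wells of about 50 µL received 100 nL stock; 0% = vehicle wells and 100% = reference inhibitor wells; whole bacteria with a GFP reporter of the hypoxia response; strong numbers were not always called active; many hits fall short of the cut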
# Bead autofluor – flagged as autofluorescent in microsphere protease counterscreen; compound autofluorescence counterscreen, microsphere flow cytometry; hits give high values; fluorescence intensity (no concentration beside the values); 360,000 compounds, 3.1% hits;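 active = at least 3 SD above the mean of all compounds, about 16000 in these data; inconclusive = too few beads counted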;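 note: 100 nL of 1 mM stock went into each well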
# Mtb hypoxia rep growth – recorded beside Mtb hypoxia rep, whose call it bears; growth inhibition, %; measured here: M. tuberculosis growth (absorbance);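 0% = vehicle and 100% = reference antibiotic; read after six days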
# * = called active by the depositor; ? = inconclusive; nt = not tested or not shown.
SMILES,ugtP null kill,Sa RN4220 lethal,BJeLR lethal,PrP UTR inh,Mtb hypoxia rep,Mtb hypoxia rep growth,Bead autofluor
Cc1ccc(S(=O)(=O)NC(C(=O)OCC(=O)NC(=O)c2cccn2C)C(C)C)cc1 (configuration not stated),3,1.6,0,2,4,3,3099
CCC(Oc1ccccc1OC)C(=O)Nc1ccc2c(c1)OCO2 (configuration not stated),1,1.1,0,-18,-4,0,5137
Cc1cccc(Cn2cc(/C=C/[N+](=O)[O-])c3ccccc32)c1,25,52,2,-10,4,4,8917
Cc1ccc(S(=O)(=O)N2CCN(Cc3cc4c(cc3Br)OCCO4)CC2)cc1,1,0.7,nt,-10,0,1,8792
Cc1cccc(C(=O)Oc2ccc(/C=N/O)cc2)c1,nt,nt,-9,-128,nt,nt,8593
COC(=O)CCC(=O)Nc1cc(Cl)cc(Cl)c1,8,8.3,-1,-29,-7,-1,4344
COc1ccc(CCNC(=O)COc2ccc(S(=O)(=O)N3CCOCC3)cc2)cc1OC,7,5.7,-4,-21,5,4,6054
COc1ccc(-c2nn(-c3ccccc3)cc2/C=N/Nc2ccc3ccccc3n2)cc1OC,nt,nt,-8,-27,nt,nt,1997
Cc1cc(C)n2nc(SCC(=O)c3ccc[nH]3)nc2n1,-3,-2.5,-2,-28,nt,nt,4156
CCCCN(C(=O)CN1C(=O)C2CC=CCC2C1=O)c1c(N)n(CCC)c(=O)[nH]c1=O (configuration not stated),-6,4.6,4,-24,18,8,8792
CCn1nnc(NC(=O)COc2ccc([N+](=O)[O-])cc2)n1,1,0.3,-11,-11,16,7,4478
Cc1cc(F)ccc1S(=O)(=O)N1CCCOC1CNC(=O)C(=O)NCc1ccc2c(c1)OCO2 (configuration not stated),1,3.2,-8,-19,-1,3,5482
CCN(CC)C(=O)Cn1cc(S(=O)(=O)CC(=O)N2CCCCCC2)c2ccccc21,6,3.2,-1,9,-5,9,3729
N#C/C(=C\c1ccccc1[N+](=O)[O-])C(=O)Nc1ccc(S(N)(=O)=O)cc1,6,-1.2,-1,-7,1,-11,4866
COc1ccc(CN2CCC(=O)N(C(CO)CC(C)C)CC2)cc1OC (configuration not stated),-4,2.7,nt,nt,7,10,nt
CCOc1cccc2c1OC1(C)CC2NC(=O)N1c1cccc(F)c1 (configuration not stated),-4,0.8,-6,-25,nt,nt,4735
COc1ccc(NS(=O)(=O)c2ccc(OC)c(NC(=O)CCC3CCCC3)c2)cc1,3,-1.9,-5,-2,9,2,1992
O=C(O)c1cc(NC(=O)c2ccc(Br)cc2)cc(NC(=O)c2ccc(Br)cc2)c1,-12,-6.8,-2,-15,14,6,4272
COc1ccccc1N1CCN(C(C)C(=O)Nc2ccc(S(=O)(=O)N3CCOCC3)cc2)CC1 (configuration not stated),4,5.6,2,-11,13,3,4193
O=[N+]([O-])c1ccc(-c2nc(=S)c3c(o2)CCCC3)cc1,-7,7.1,-18,-29,1,0,2475
CCc1cc2c(=O)c(-c3cnn(-c4ccccc4)c3)c(C(F)(F)F)oc2c(CN(C)C)c1O,1,8.2,0,-12,-3,0,8813
O=C(Nc1ccccc1C(=O)NCc1cccnc1)c1ccccc1F,5,0.2,7,-16,0,10,6056
COc1ccc(C(=O)N/N=C/c2c(CO)cnc(C)c2O)cc1,nt,nt,-3,-33,nt,nt,4161
O=C(CSc1nnc(-c2cccnc2)n1CCc1ccccc1)NCc1ccccc1,0,-13,0,-13,6,1,2867
COCc1ccc(C(=O)N2CCCC(C(=O)c3cc(F)ccc3F)C2)s1 (configuration not stated),11,3.2,0,-20,-2,7,4476
Cc1ccccc1-c1cc(=O)c2c(O)cccc2o1,14,9.2,-7,2,2,2,3681
N#CCCN/N=C(/Cc1nc2ccccc2[nH]1)c1cccc(Cl)c1,nt,nt,-1,-36,nt,nt,3163
COc1ccc(-c2c(-c3ccccc3)n(C)c3ccccc23)cc1,4,-12,nt,-7,-4,0,3440
COCCCn1c(-c2ccc(S(=O)(=O)N3CCOCC3)cc2)csc1=Nc1ccccc1,0,3.9,8,-16,12,0,2338
CCc1c(C)sc(NC(=O)c2ccc(Br)o2)c1C(=O)OC,-3,-8.0,-6,-23,1,11,4628
O=c1cc(-c2ccccc2Cl)oc2c(NS(=O)(=O)c3cc(Cl)cc(Cl)c3O)ccc(O)c12,nt,nt,11,-6,nt,nt,4720
Cc1ccc(S(=O)(=O)NCC(=O)N/N=C/c2ccccc2O)cc1,nt,nt,-1,-3,nt,nt,2627
O=C(COn1nnc2ccc(S(=O)(=O)N3CCOCC3)cc21)NCCc1ccccc1,nt,nt,10,3,nt,nt,6775
COc1cccc(-c2nnc(SCC(=O)Nc3cc(C)on3)o2)c1,0,-5.6,3,-22,nt,nt,2719
CCSc1nc2ccccc2n1Cc1cccc([N+](=O)[O-])c1,3,-4.7,-4,-20,13,3,4865
CC(C)OC(=O)c1c(NC(=O)c2cccs2)sc2c1CCCC2,24,0.7,-1,-12,2,-1,11333
O=C(CN1C(=O)c2ccccc2S1(=O)=O)Nc1cccc(S(=O)(=O)N2CCCCC2)c1,1,0.9,nt,-15,5,5,4270
CCN(c1ccccc1)S(=O)(=O)c1cc([N+](=O)[O-])ccc1N,0,3.2,4,-18,14,-4,3976
Cn1cc(C=Nn2cnc3sc4c(c3c2=O)CCCC4)c2ccccc21,-19,1.8,nt,nt,11,11,nt
CCCCc1nc2ccccc2n1Cc1nnc2n1-c1ccccc1SC2,-4,-4.6,0,0,16,-21,3243
CCOc1ccc(C)cc1S(=O)(=O)n1cnc2ccccc21,5,5.7,19,-14,5,5,2946
CCOC(=O)C1=C(C)N=c2sc(=Cc3ccc(OCC(=O)O)cc3)c(=O)n2C1c1cc(OC)c(OC)c(OC)c1 (configuration not stated),5,4.5,nt,nt,6,-4,nt
Cc1ccccc1NC(=O)N1CCN(C/C=C/c2ccccc2)CC1,9,2.4,4,-10,6,-12,3886
CC(=O)N/C(=N\c1nc(C)cc(C)n1)Nc1ccc2ccccc2c1,nt,nt,8,19,nt,nt,3765
Nc1nnc(Cc2ccc(Cl)c(Cl)c2)s1,-5,-16,5,-21,12,15,3367
CCN1/C(=C/c2sc(-c3ccccc3C)c[n+]2C)Sc2ccccc21,101*,100*,17,-5,nt,nt,4354
COC(C(=O)Nc1ccnn1C1CCN(Cc2ccccn2)CC1)c1ccccc1 (configuration not stated),2,-0.2,-3,0,-3,-1,5036
O=C(Oc1c(Cl)cc(Cl)c2cccnc12)c1ccco1,98*,99*,5,-1,-2,3,11193
O=C(NCc1ccccc1)C(c1ccc(Cl)cc1)N(C(=O)c1csnn1)C1CC1 (configuration not stated),nt,nt,-8,-10,nt,nt,3745
Cc1cc(=O)oc2cc(OCC(=O)OCC(=O)NC3CC3)ccc12,4,1.3,-2,-21,1,4,4529
C=CCN(CC=C)C(=S)NCCc1ccc(OC)c(OC)c1,3,3.4,3,-3,5,6,2304
COc1ccc(NC(=O)c2ccc(NC(=O)COC(=O)c3cnc(C)cn3)cc2)cc1,2,0.5,7,-14,-2,5,6022
CCCNS(=O)(=O)c1ccc(NC(=O)c2cccnc2)cc1,6,2.0,-4,-13,1,3,20443*
COc1ccc(-c2c(NC(=O)c3ccco3)oc3c(C)cccc3c2=O)cc1OC,-2,-0.1,-7,-16,0,1,5444
CC(=O)Nc1ccc(S(=O)(=O)NC2=NCN(c3cccc([N+](=O)[O-])c3)CN2)cc1,8,1.6,0,-27,6,-1,3679
Cc1noc(/C=C/c2ccccn2)c1[N+](=O)[O-],-4,-1.4,33,-5,-1,4,3917
CCN(CC)c1ccc(NC(=O)CN2C(=O)CC(C)(C)S(=O)(=O)c3ccccc32)c(C)c1,7,-0.5,1,-7,nt,nt,5578
CCOc1ccc(C=NNC(=O)c2cc(-c3ccccc3)nc3ccccc23)cc1O,0,-2.0,nt,nt,2,3,nt
CCCCOC(=O)c1ccc(NC(=O)c2cnc3n(c2=O)CCS3)cc1,5,0.9,3,-17,1,10,3531
N=c1oc2ccccc2cc1C(=O)Nc1ccc(F)cc1,4,2.2,0,nt,-2,-2,3859

# Next part.
SMILES,ugtP null kill,Sa RN4220 lethal,BJeLR lethal,PrP UTR inh,Mtb hypoxia rep,Mtb hypoxia rep growth,Bead autofluor
Cc1coc2c(C)c3oc(=O)c(CCC(=O)N(C)CC(=O)O)c(C)c3cc12,-1,5.1,1,-15,-10,8,3455
O=C(CSC1=NS(=O)(=O)c2cc(Cl)ccc2N1)NCc1ccc(F)cc1,3,-0.1,-7,-33,-1,2,?
COc1cccc(-c2cc(C(=O)N3N=C(C)CC3(O)C(F)F)c3ccccc3n2)c1 (configuration not stated),8,-4.0,-2,-30,10,-1,3263
Cc1ccc(S(=O)(=O)NCCCNS(=O)(=O)c2ccccc2)cc1,9,6.2,-3,-15,9,5,3747
O=C(COc1ccc(Cl)cc1Cl)NN=Cc1ccc[nH]1,-2,2.5,nt,nt,13,6,nt
O=C(c1ccc2c(c1)OCO2)C1CCCN(Cc2ccc3cccc(F)c3n2)C1 (configuration not stated),22,0.1,-8,-4,12,5,2725
CCCCn1c(O)c(C(C)=NCCN2CCOCC2)c(=O)[nH]c1=O,-2,-0.9,-3,2,-5,3,6258
COc1ccc(C=NNC(=O)c2cccnc2)cc1CN1CCc2ccccc2C1,5,2.1,nt,nt,6,14,nt
CCOC(=O)c1sc(C)c2c(=O)n(CC(=O)c3ccc(Br)cc3)nnc12,-6,-5.6,12,-8,nt,nt,2148
COc1ccc(C(=O)OCC(=O)Nc2cccc(S(=O)(=O)NC3=NCCCCC3)c2)cc1[N+](=O)[O-],3,3.0,nt,-8,-5,2,4414

# Compound activity as filed in PubChem.
